# Bioassay records from PubChem BioAssay.
# Mtb MbtI inh = inhibitors of Mycobacterium tuberculosis siderophore enzyme MbtI. AID 493033. inhibition, %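 (about 17 µg/mL by stock and volumes)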. P9WFX0. 100,000 compounds, 0.89% hits. purified MbtI enzyme, fluorescence intensity read-out;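 active = above 50% in both replicates, above 80% if mildly self-fluorescent; inactive = the rest, strongly fluorescent compounds included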;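 note: 0% = mean of negative and 100% = mean of positive controls; one replicate is shown; some compounds called inactive have numbers as strong as hits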
# PV pol inh = poliovirus RNA polymerase inhibition; P03300; poliovirus polymerase elongation, fluorescence polarization; stronger effect = lower value; % elongation, % (compound at 16.7 µg/mL); 150,000 compounds, 0.66% hits; in the data active = % elongation below about 90%; note: some results filed as inactive read as strong as hits
# Target sequence (P03300 1749-2209 limits assumed): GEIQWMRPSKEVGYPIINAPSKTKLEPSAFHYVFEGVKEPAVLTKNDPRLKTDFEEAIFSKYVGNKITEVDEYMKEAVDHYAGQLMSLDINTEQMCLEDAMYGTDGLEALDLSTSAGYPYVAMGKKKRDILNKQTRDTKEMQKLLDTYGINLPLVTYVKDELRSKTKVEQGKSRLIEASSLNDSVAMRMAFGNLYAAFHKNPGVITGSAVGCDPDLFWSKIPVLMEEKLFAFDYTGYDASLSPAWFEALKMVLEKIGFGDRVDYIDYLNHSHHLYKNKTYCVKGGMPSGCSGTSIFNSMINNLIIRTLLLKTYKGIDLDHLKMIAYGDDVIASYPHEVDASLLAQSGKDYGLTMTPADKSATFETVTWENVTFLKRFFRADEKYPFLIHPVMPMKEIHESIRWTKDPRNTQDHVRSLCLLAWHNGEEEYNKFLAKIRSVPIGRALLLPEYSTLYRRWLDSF
# Mtb MenB inh = Mtb MenB enzyme inhibition. 100,000 compounds, 0.43% hits. P9WNP5. inhibition, %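 (about 12 µg/mL by stock and volumes)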. MenB enzyme assay, absorbance read-out; some hits fall short of the stated cut;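 active = mean of two replicates above 30%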;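 note: 0% = no compound and 100% = wells with inactive enzyme; the first replicate is given; strong numbers were not always called active; inactives centre near -10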
# Target sequence (P9WNP5 whole entry, looked up): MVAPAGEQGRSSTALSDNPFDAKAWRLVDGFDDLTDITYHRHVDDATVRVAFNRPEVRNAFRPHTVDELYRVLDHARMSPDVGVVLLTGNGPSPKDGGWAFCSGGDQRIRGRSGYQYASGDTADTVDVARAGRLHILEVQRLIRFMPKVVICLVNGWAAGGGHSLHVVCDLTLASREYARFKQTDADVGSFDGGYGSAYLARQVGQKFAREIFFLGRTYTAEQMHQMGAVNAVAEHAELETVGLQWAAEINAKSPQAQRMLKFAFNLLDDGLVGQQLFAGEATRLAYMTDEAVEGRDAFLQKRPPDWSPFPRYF
# PV pol inh intensity = further read-out of PV pol inh, marked with its call; % elongation; measured here: total intensity read-out; formula for this scale not given here;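 total fluorescence in place of polarization; lower means less elongation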
# The depositor's hits bear a star; . = no result given.
SMILES,Mtb MbtI inh,PV pol inh,PV pol inh intensity,Mtb MenB inh
FC(F)(F)c1ccccc1NC(=S)Nc1ccc(-c2csnn2)cc1,7,102,105,-3
O=C(CNC(=O)C12CC3CC(CC(C3)C1)C2)OCc1nnc(-c2ccccc2)o1,15,103,99,-18
N#Cc1ccc(COC(=O)C2CCC(=O)N2)cc1 (configuration not stated),-7,105,98,-37
CCn1cnc2cc(NCc3nc4ccccc4n3Cc3ccccc3)ccc21,7,103,104,-30
O=C(Nc1ccon1)c1ccccc1F,5,101,97,-2
CC(C)(C)OC(=O)C[n+]1cccc(C(N)=O)c1,7,102,105,3
Cc1nc(SCC(=O)Nc2ccc3c(c2)OCCO3)n(CC(C)C)c1C,10,105,110,-24
CCC1C2CC3[C@@H]4N(C)c5ccccc5[C@]45CC(C2[C@H]5O)N3[C@@H]1O (some centres not stated),-20,101,99,-8
Cc1nc2nc(NC(=O)c3ccc(F)cc3)[nH]n2c(=O)c1Cl,-6,104,103,-9
COC(=O)C1(N2CCOCC2)/C(=C(\O)c2ccccc2)C(=O)C(=O)N1c1ccccc1 (configuration not stated),-5,99,98,3
CCOc1ccc(-n2c(CCC(=O)OC3CCOC3=O)nc3ccccc3c2=O)cc1 (configuration not stated),56,100,102,-21
CCN(CC)S(=O)(=O)c1ccc(OC)cc1,.,108,104,-13
CC(=O)n1c(/C=C2/N=C(c3cccs3)OC2=O)cc2ccccc21,-5,102,103,-33
Cc1cc(C(F)(F)F)c(C#N)c(SCC(=O)c2ccccc2)n1,.,106,109,-21
CCOC(=O)C1CCCN(C(=O)c2ccc3c(c2)C(=O)N(Cc2ccco2)C3=O)C1 (configuration not stated),-15,103,105,-13
S=c1oc(-c2ccco2)nn1CN1CCc2ccccc2C1,8,99,96,-4
c1ccc(-n2ncc3c(N4CCN(CCOc5cccc6ccccc56)CC4)ncnc32)cc1,20,101,101,4
CC(=O)NCCC(=O)Nc1ccc(N(c2ccccc2)C(C)C)cc1,-13,103,103,-21
Cc1nc(-c2ccccc2)sc1C(=O)Sc1ccc(Cl)cc1,-1,103,95,0
O=C(NCCCN1CCOCC1)c1ccc2c(c1)N(Cc1cccc(Cl)c1)C(=O)c1ccccc1S2=O (configuration not stated),11,101,99,-29
CN(CC1COc2ccccc2O1)C(=O)c1ccc2[nH]c(=O)c(=O)[nH]c2c1 (configuration not stated),50,102,92,12
Cc1ccc(CSCCNS(=O)(=O)c2ccccc2)cc1,-24,99,101,-24
CCOC(=O)Cn1cc(/C=C(\C#N)Sc2nc3ccccc3s2)c2ccccc21,.,100,104,-56
FC(F)(F)c1cc(N2CCCCC2)c2cccc(Cl)c2n1,-1,101,104,-17
O=C(NCC1CCCO1)c1noc2c1CSc1ccccc1-2 (configuration not stated),71,105,99,-16
Nc1nc(-c2cccnc2)nn1C(=O)Cc1ccccc1,1,101,100,14
CCc1nc2sc(C#N)c(N)c2cc1C,.,102,110,-11
O=C(SCC(=O)N1CCc2ccccc21)c1ccccc1,6,102,97,.
CCN(CC)C(=O)/C(=C/c1ccccc1)c1ccccc1,-7,101,102,-7
O=C(Nc1ccc([N+](=O)[O-])cc1Cl)c1cc(Cl)ccc1O,-13,101,99,0
CN(C)S(=O)(=O)c1cccc(COC(=O)c2cn(-c3ccccc3)nc2-c2cccs2)c1,-6,108,104,-25
Cc1ccc2cc3c(nc2c1)OCC3,62,104,103,0
CC(C)(C)c1ccc(C(=O)NC2CCSC2=O)cc1 (configuration not stated),-14,102,102,-17
Cc1ccc(-c2cn3c(n2)SCC3)cc1,5,101,106,-8
Cc1[nH]n(-c2ccccc2)c(=O)c1CCC(=O)O,-6,97,102,-19
CC(C)C(NC(=O)c1ccc(Cl)nc1)c1ccc2c(c1)OCCCO2 (configuration not stated),-4,101,97,-10
Cc1noc(C)c1CN(C(=S)NC1CC1)c1ccccc1,-5,100,104,-7
Cc1cc(C(=O)O)ccc1-c1ccc(/C=N/n2cnnc2)o1,-41,99,104,-16
CCOC(=O)C1=C(C)NC2=C(C(=O)CC(C)(C)C2)C1C (configuration not stated),127,100,99,.
O=C(c1cc2ccccc2oc1=O)N1CCC2(CC1)OCCO2,-6,103,101,-32
Cc1cc(C)c(CO)c(C)c1CO,4,102,104,-26
O=C1OCCC1N1C(=O)c2ccccc2S1(=O)=O (configuration not stated),-4,104,106,-21
O=C(O)CSc1nnc2nnc3ccccc3n12,5,100,103,-18
CC(=O)N1CCN(c2ccc(NC(=O)COc3ccc4ccccc4c3)cc2)CC1,.,104,107,-3
Cc1ccc2c(c1)-c1c(cnn1CC(=O)NCCCN1C(C)CCCC1C)CO2 (configuration not stated),-4,103,105,1
COc1ccc2c(c1)OC13CCCCC1C2C(C(=O)c1ccccc1)C(=O)N3 (configuration not stated),4,99,102,12
CC(C)N(Cc1nnc(-c2ccccc2Cl)o1)C(=O)CCN1C(=O)NC2(CCCC2)C1=O,-2,102,107,-5
NNC(=O)CS(=O)(=O)c1ccc(C(F)(F)F)cn1,-9,105,113,-17
CCC(C)c1ccc(N=C(NO)c2ccc(OC)cc2)cc1 (configuration not stated),-1,100,97,.
C=CCN1C(=S)NC2CC1(C)Oc1c(OCC)cccc12 (configuration not stated),-6,99,105,-21
# Carrying on:
SMILES,Mtb MbtI inh,PV pol inh,PV pol inh intensity,Mtb MenB inh
CC(C)CCN1CC(C(=O)NC2CCCCCC2)CC1=O (configuration not stated),5,103,105,6
O=C(CN1CCCC1)c1ccccc1Br,-5,105,106,-7
N#CC(C#N)=Cc1cc2c(cc1Br)OCO2,86,70*,72*,-43
COC(=O)c1c(CC=C(C)C)c(C)nc2ccccc12,.,106,112,-4
CCN1CCN(C(=O)c2ccc(Br)o2)CC1,-10,102,100,.
N#C/C=C/N1CCc2ccccc2C1,19,97,105,-6
O=C(CSCc1ccc(Cl)cc1)c1ccccc1F,-10,100,100,.
Cc1nc(-c2cccc(NC(=O)CN3CCN(S(=O)(=O)Cc4ccccc4)CC3)c2)cs1,-16,103,109,-11
CC1CCCCN1C(=O)Nc1c[nH]c2ccccc12 (configuration not stated),6,102,110,-19
O=C1CC(c2ccco2)CC2=C1C(c1ccc(Cl)cc1)n1ncnc1N2 (configuration not stated),40,102,101,-17
Cc1ccc2c(c1)-c1c(cnn1CC(=O)Nc1ccc(S(=O)(=O)N3CCCCC3)cc1)CO2,-1,99,102,-1
O=C(c1cccc(Cl)c1)c1nnc(-c2ccccc2)o1,-5,99,102,2
COc1cc(Br)cc2cc(C(=O)N3CCN(c4ccccn4)CC3)c(=O)oc12,-3,98,100,-6
COc1ccccc1N1C(=O)C(Cc2ccccc2)N=C1N1CCC(C)CC1 (configuration not stated),-40,102,103,-27
O=c1[nH]ncc(N2CCCCCC2)c1Cl,0,98,96,1
CCOc1ccc(OCCBr)cc1,-6,102,104,.
COC(=O)C1=C(C)N(C)C(=O)N(C)C1c1ccc(O)cc1 (configuration not stated),9,101,101,21
CC1(C)OC(=O)N(c2ccccc2)/C1=C\C[N+](C)(C)C,.,109,113,-5
CC(C)OCCCNC1CCN(C)CC1,-2,104,106,-4
CCOC(=O)c1oc2ccccc2c1CBr,47,103,107,.

# Looked up above.
# For PV pol inh, COc1ccccc1N1C(=O)C(Cc2ccccc2)N=C1N1CCC(C)CC1 (configuration not stated) reads 102
# For Mtb MbtI inh, O=c1[nH]ncc(N2CCCCCC2)c1Cl reads 0

# Further compounds.
SMILES,Mtb MbtI inh,PV pol inh,PV pol inh intensity,Mtb MenB inh
CCC(C)NC(=O)COc1ccc(Br)c(C)c1 (configuration not stated),4,99,101,-4
COC(=O)CSc1ccc2c(N)c(C(=O)OC)sc2c1,.,105,107,-30
O=C(Nc1cccnc1)OCC(F)(F)F,1,105,109,-19
COc1cccc(-c2nnn(CC(=O)N3CCCC3)n2)c1,-17,100,108,5
N#C/C=N/N(c1ccccc1)c1ccccc1,1,104,109,-15
CC1OC(C)C(C)C(c2ccccc2O)O1 (configuration not stated),.,104,107,-11
Cc1ccc(S(=O)Cc2ccc(C(=O)NC3CCCC(C)C3C)o2)cc1 (configuration not stated),2,101,102,5
Clc1ccc(OCCN2CCNCC2)cc1,-4,102,108,-1
COC(=O)C1=NNC(c2ccccc2)(c2ccccc2)C1,.,101,104,-10
CCN1CCN(Cc2ccc(NC(=O)c3cc4ccc5cccnc5c4[nH]3)cc2)CC1,-19,102,96,-26
C=CCn1c(CNC(=O)c2ccccc2)n[nH]c1=S,13,104,104,-36
Cc1cc(C)cc(NC(=O)Cc2noc3ccc(C)cc23)c1,-14,100,101,5
COCc1c(C)cc(C)c(C=C(C#N)C#N)c1C,-3,96,100,14
CCOC1(OCC)N=C(N)C2(C#N)C(c3ccccc3F)C12C#N (configuration not stated),0,102,106,16
O=C(NCc1ccc(F)cc1)c1ccc(S(=O)(=O)N2CCCC2)cc1,5,103,105,-24
CC1CN(C(=O)C(C)C)CC(C)O1 (configuration not stated),.,107,107,-5
O=C1CCCC2=C1C(c1ccc(F)cc1)c1c([nH]c(=O)[nH]c1=O)N2 (configuration not stated),-3,100,104,5
COC(=O)C1CC(C)=CC(C)C1C(=O)O (configuration not stated),-1,104,102,-31
COc1ccc(Br)cc1CNc1ccc(N2CCOCC2)cc1,-17,102,104,-27
CC(C)Cc1ccc(C(C)c2nc(-c3cccs3)no2)cc1 (configuration not stated),-15,103,105,0
CC1=CC=C(N(CC2=NCCN2)c2cccc(O)c2)CC1,.,101,104,-8
CC(C)Cn1cc(NC(=O)Nc2cccnc2)c2ccccc2c1=O,119,101,100,0
N=C(N)N1CCc2ccccc2C1,-11,101,99,1
Cc1nn(C2CC(=O)N(c3ccc(Cl)cc3)C2=O)c(C)c1C (configuration not stated),-3,100,103,7
O=C(CCC1CCCCC1)Nc1nc2ccccc2s1,9,100,99,2
CS(=O)(=O)N1CCN(C(=O)c2ccccc2)C1,-3,99,100,2
Cc1cc2ncn(CCOc3ccccc3)c2cc1C,.,104,109,-22
O=c1n(Cc2ccc(F)cc2)nc2n1-c1ccccc1SC2,-5,104,105,11
Cc1csc(SCc2ccccc2C(=O)OCC(N)=O)n1,-1,106,113,-24
CCN(CC)c1ccc(C=C2C(=O)OC(c3ccccc3)OC2=O)cc1 (configuration not stated),.,115,112,-8
CCCc1nc(SCC(=O)c2ccccc2Cl)[nH]c(=O)c1C,26,100,109,-10
O=C(COC(=O)Cn1cnc2ccccc2c1=O)Nc1ccc2c(c1)OCO2,-13,99,97,-29
O=C(COC(=O)c1c(F)cccc1Cl)c1ccccc1F,-8,104,106,.
CC1=[N+](CCO)c2ccccc2C1(C)C,-9,104,104,-9
COc1ccc2nnc(-c3ccccc3)n2n1,109,100,99,13
C=CCSc1nc2ccccc2c(=O)n1-c1ccccc1,.,107,109,-13
CN(C)C(CNC(=S)NC1CC1)c1ccccc1 (configuration not stated),2,106,105,-20
CC(=O)N/C(=N\OCc1ccc(Br)cc1)c1nonc1NC(C)=O,-5,101,100,4

# Filtered by structure: those above with fluorine.
SMILES,Mtb MbtI inh,PV pol inh,PV pol inh intensity,Mtb MenB inh
FC(F)(F)c1ccccc1NC(=S)Nc1ccc(-c2csnn2)cc1,7,102,105,-3
O=C(Nc1ccon1)c1ccccc1F,5,101,97,-2
Cc1nc2nc(NC(=O)c3ccc(F)cc3)[nH]n2c(=O)c1Cl,-6,104,103,-9
Cc1cc(C(F)(F)F)c(C#N)c(SCC(=O)c2ccccc2)n1,.,106,109,-21
FC(F)(F)c1cc(N2CCCCC2)c2cccc(Cl)c2n1,-1,101,104,-17
NNC(=O)CS(=O)(=O)c1ccc(C(F)(F)F)cn1,-9,105,113,-17
O=C(CSCc1ccc(Cl)cc1)c1ccccc1F,-10,100,100,.
O=C(Nc1cccnc1)OCC(F)(F)F,1,105,109,-19
CCOC1(OCC)N=C(N)C2(C#N)C(c3ccccc3F)C12C#N (configuration not stated),0,102,106,16
O=C(NCc1ccc(F)cc1)c1ccc(S(=O)(=O)N2CCCC2)cc1,5,103,105,-24
O=C1CCCC2=C1C(c1ccc(F)cc1)c1c([nH]c(=O)[nH]c1=O)N2 (configuration not stated),-3,100,104,5
O=c1n(Cc2ccc(F)cc2)nc2n1-c1ccccc1SC2,-5,104,105,11
O=C(COC(=O)c1c(F)cccc1Cl)c1ccccc1F,-8,104,106,.
